Sa ugtP lethal = kills S. aureus RN4220 lacking UgtP; S. aureus RN4220 ugtP deletion, OD600 growth, 16 h; some inactives read as strong as hits; growth inhibition, % (no concentration beside the values); actives 0.54% (n = 330,000); AID 1259309;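 active = z-score under -3 and OD600 up to 0.15 on both plates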;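 also: plate controls were untreated wells for no effect and antibiotic for full effect; wells of about 80 µL received 100 nL stock; the first replicate is given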
PrP UTR inh = inhibition of PrP 5' UTR reporter expression. cell-based PrP 5' UTR mRNA reporter, plate reader. inhibition, % (no concentration beside the values). actives 0.35% (n = 340,000). AID 488862;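 active = every replicate at 50% or more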;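 also: 0 = median of the neutral control wells; tested in H4 reporter cells; numbers are from one replicate; inactives centre near -14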
BJeLR lethal = BJeLR cell viability loss; BJeLR (HRASV12) viability, CellTiter-Glo ATP luminescence, 48 h; reference of the scale not given here; actives 0.17% (n = 300,000); inhibition, % (test concentration not listed); AID 1554;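 active = replicate mean above 50%; inconclusive = above 50% but judged a plate artefact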;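 also: 50 nL library stock added to about 25 µL; numbers are from one replicate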
Mtb hypoxia inh = inhibitors of hypoxia-regulated fluorescent reporter in Mycobacterium tuberculosis | M. tuberculosis hypoxia-regulated fluorescent reporter, fluorescence | fluorescence inhibition, % (test concentration not listed) | actives 0.1% (n = 300,000);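 active = 35 to 45% if threefold the growth effect, above 45% if 1.5-fold the growth effect; inactive = the rest, general growth blockers included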;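 also: wells of about 50 µL received 100 nL stock; 0% = vehicle wells and 100% = reference inhibitor wells; whole bacteria with a GFP reporter of the hypoxia response; strong numbers were not always called active; many hits fall short of the cut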
Bead autofluor = flagged as autofluorescent in microsphere protease counterscreen | compound autofluorescence counterscreen, microsphere flow cytometry; active compounds read high | fluorescence intensity (concentration not given with the values) | actives 3.1% (n = 360,000);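 active = at least 3 SD above the mean of all compounds, about 16000 in these data; inconclusive = too few beads counted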;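 also: 100 nL of 1 mM stock went into each well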
Sa RN4220 lethal = S. aureus RN4220 growth inhibition; OD600, 16 h; inhibition, % (no concentration beside the values); actives 0.33% (n = 330,000);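 active = z-score of -3 or lower and OD600 up to 0.18 on both plates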;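 also: plate controls were untreated cells for no effect and reference antibiotic for full effect; stock transfer was 100 nL into about 80 µL; one replicate is shown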
Mtb hypoxia inh growth = second read-out of Mtb hypoxia inh, no call of its own (marks repeat the call); growth inhibition, %; measured here: M. tuberculosis growth (absorbance);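 0% = vehicle and 100% = reference antibiotic; read after six days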
An asterisk follows results filed as active; ? = inconclusive; · = not tested or not shown.

molecule	Sa ugtP lethal	PrP UTR inh	BJeLR lethal	Mtb hypoxia inh	Mtb hypoxia inh growth	Bead autofluor	Sa RN4220 lethal
CCOC(=O)C(C)Oc1ccc(C2NC(=O)NC(C)=C2C(C)=O)cc1Br (stereo not given)	23.5	-9.5	-3.3	3.9	6.0	10062	-5.3
C=C1CC2C(=O)N(Cc3ccccc3)C(C(=O)OCC)(C(=O)OCC)C1N2C(=O)OC(C)(C)C (stereo not given)	4.7	-2.6	6.7	3.4	-4.3	4295	7.5
COC(=O)c1cnc(SCc2ccc([N+](=O)[O-])cc2)n1C	3.0	·	-2.0	13.9	17.3	·	3.9
CCCc1nnc(-c2ccc(OC)cc2)o1	1.8	-24.9	15.2	·	·	2079	6.5
Cc1nc(N2C(=O)C(=O)/C(=C(/O)c3ccccc3)C2c2ccco2)sc1C (stereo not given)	·	-9.0	2.2	·	·	3404	·
C=CCn1cc(CN2CCC(C(=O)Nc3cccc(-c4cccc(Cl)c4)c3)CC2)c(C)n1	-12.0	-9.8	4.9	10.1	6.4	6849	7.9
CCOC(=O)N1CCN(C(=O)CCn2nc(-c3ccccc3)ccc2=O)CC1	15.3	-3.6	7.7	0.8	5.2	2572	4.9
COc1cc(C(=O)NCC(=O)N/N=C/c2ccc(-c3ccc([N+](=O)[O-])cc3)o2)cc(OC)c1OC	·	-7.5	-3.0	·	·	6114	·
CCOc1ccc(C2C(C(=O)O)CCC(=O)N2C2CCCCC2)cc1 (stereo not given)	0.4	-7.8	-0.9	-0.5	0.0	3700	2.1
CCOC(=O)CCn1c2nc(C)cc(C)c2c(=O)n1-c1ccccc1	3.8	-11.3	-3.7	·	·	5270	3.8
CCC(C)NC(=O)c1cc(-c2ccc3c(c2)OCO3)on1 (stereo not given)	10.9	-27.2	-0.6	14.4	8.5	3601	2.7
Cc1ccc(NC(=S)NC(=O)c2ccc(F)cc2)cc1S(=O)(=O)Nc1cccc(Cl)c1	21.2	-22.6	-3.7	-1.2	0.6	3126	74.3
COc1ccc(NC(=O)C2CCN(S(=O)(=O)c3cccc4nonc34)CC2)cc1	0.1	-12.4	-3.9	3.7	6.6	3674	3.2
Nc1ccc(Br)c2cccnc12	-1.4	-18.5	-10.9	-12.5	9.8	3739	-11.7
CCOc1ccc(C=NNC(=O)c2[nH]c3ccc(C)cc3c2C)cc1	-7.2	·	·	8.1	2.3	·	-13.1
Cc1cc(C)cc(C(=O)Nc2ccc(N3CCCC3)cc2)c1	-3.1	-108.9	-4.3	11.8	3.4	4013	6.0
C=CCC(CC(=O)NCCO)C(=O)NC(COC(=O)C(CC=C)Cc1ccc(F)cc1)C(C)(C)C (stereo not given)	0.4	·	·	10.3	3.6	·	3.2
COC(=O)C1=CN(Cc2cccs2)C=C(C(=O)OC)C1c1ccc(OC)cc1OC	2.0	-8.2	4.1	3.2	2.7	3962	-1.6
O=C(Nc1ccc2c(c1)OCCO2)C1CCN(c2ncccn2)CC1	3.6	-4.1	-3.3	2.7	-1.3	2191	-0.6
Fc1ccccc1-c1nc(N2CCCCC2)c2ccccc2n1	20.2	-6.7	6.2	-5.4	1.9	2183	0.6
O=C(c1ccc(C#CC2(O)CCCCC2)cc1)N1CCN(C(c2ccccc2)c2ccccc2)CC1	0.8	1.4	5.1	·	·	2179	-8.4
Cc1ccc(NC(=O)c2cccc(S(=O)(=O)N3CCN(c4ccc(F)cc4)CC3)c2)nc1	-21.5	-8.2	7.1	-5.1	5.4	4668	-0.9
O=C(COc1ccc(-c2nnco2)cc1)Nc1c(F)cccc1F	1.0	-13.0	1.9	6.1	5.9	5169	2.6
Cc1cc(C)n(-c2nc3ccccc3nc2N2CCN(C(=O)c3ccccc3)CC2)n1	6.3	-16.2	3.5	·	·	2443	-1.1
COc1ccc(C(=O)Nc2ccncc2)cc1OC	8.2	-8.5	4.5	-1.3	6.5	8075	3.5
O=C(CN1CCN(Cc2ccccc2)CC1)NCc1ccc(Cl)cc1	11.3	-16.4	-11.6	7.3	-2.0	4033	5.4
Cc1ccnc(N/N=C/c2ccccc2)n1	·	-96.0	15.3	·	·	7685	·
COc1cc(-c2noc(C3CCCN(C(=O)c4c(F)cccc4F)C3)n2)cc(OC)c1OC (stereo not given)	7.4	-15.8	-3.0	2.1	4.0	4564	2.4
CNS(=O)(=O)c1cccc(C(=O)OC2CCCCC2=O)c1 (stereo not given)	2.6	2.7	3.6	·	·	3628	1.1
O=C(Nc1ccccc1N1CCOCC1)c1cccc(F)c1	9.8	-10.5	-4.0	6.5	-8.6	4233	11.8
COc1ccc(C(=O)COC(=O)C(CCSC)NS(=O)(=O)c2ccc(Cl)cc2)cc1 (stereo not given)	-5.6	-10.1	0.3	7.6	4.7	7326	6.5
CCN1C(=O)/C(=C/c2cccs2)N(C)C1=S	-3.6	-20.1	5.0	8.0	6.8	3813	11.7
CC(C)N(C(=O)NC(=O)Nc1ccc(S(=O)(=O)N2CCCC2)cc1)S(C)(=O)=O	3.8	-3.7	14.7	2.1	14.2	4269	-4.6
CC(=O)Oc1ccc(/C=N/NC(=O)CCSc2ccccc2)cc1	·	-28.1	0.7	·	·	4132	·
O=S(CC1CC1(Cl)Cl)CC1CC1(Cl)Cl (stereo not given)	8.0	-10.7	2.4	·	·	1925	3.9
CCOCCCNCc1ccc(OCc2ccccc2C)c(OC)c1	1.6	8.1	2.6	17.1	15.9	5509	0.9
CC(=O)c1ccc(NC(=O)Nc2ccc([N+](=O)[O-])cc2)cc1	-18.7	-6.8	6.7	-5.5	-0.6	9535	4.3
Cn1c(CNc2ccc(Cl)cc2)nnc1SCC#N	11.3	-14.7	-2.6	12.1	3.2	2103	1.8
COc1ccc2cnn(Cc3ccccc3)c(=O)c2c1OC	-0.2	0.2	2.5	·	·	2855	-15.7
Cc1ccn2c(CNC(C)c3cn(C)nc3C)c(C(=O)N3CCCCCC3)nc2c1 (stereo not given)	6.4	1.4	-1.3	2.8	8.3	5250	2.2

Random excerpt: 4 entries already listed
molecule	Sa ugtP lethal	PrP UTR inh	BJeLR lethal	Mtb hypoxia inh	Mtb hypoxia inh growth	Bead autofluor	Sa RN4220 lethal
O=C(CN1CCN(Cc2ccccc2)CC1)NCc1ccc(Cl)cc1	11.3	-16.4	-11.6	7.3	-2.0	4033	5.4
Cn1c(CNc2ccc(Cl)cc2)nnc1SCC#N	11.3	-14.7	-2.6	12.1	3.2	2103	1.8
O=C(Nc1ccccc1N1CCOCC1)c1cccc(F)c1	9.8	-10.5	-4.0	6.5	-8.6	4233	11.8
CC(C)N(C(=O)NC(=O)Nc1ccc(S(=O)(=O)N2CCCC2)cc1)S(C)(=O)=O	3.8	-3.7	14.7	2.1	14.2	4269	-4.6

(next part)
molecule	Sa ugtP lethal	PrP UTR inh	BJeLR lethal	Mtb hypoxia inh	Mtb hypoxia inh growth	Bead autofluor	Sa RN4220 lethal
O=[N+]([O-])c1ccc2nnn(O)c2c1	-1.0	-0.4	-14.0	-2.4	-7.2	2319	3.6
CCn1c(=NC(=O)CN2C(=O)CCC2=O)sc2c(OC)ccc(OC)c21	0.7	-4.2	-4.5	10.8	7.5	4206	-1.7
COC(=O)c1ccc(NC(=O)CN(C)S(=O)(=O)c2ccc(OC)c(C)c2)cc1	6.1	12.7	-5.8	4.5	2.3	24716*	4.5
Cc1cc(C)c2c(=O)[nH]c(SCC(=O)N3CCCCC3)nc2n1	-2.8	-35.5	5.4	7.1	7.0	21909*	-0.6
Cc1nc(C)c(C(=O)Nc2cccc(F)c2)s1	13.2	-5.0	-2.0	8.8	10.9	3238	1.0
O=C(CNC1CCCCCC1)Nc1ccccc1N1CCCCC1	-20.9	-7.2	1.5	2.0	4.0	3522	11.7
C#CCNC(=O)C1=C[C@H](c2csc3ccccc23)C[C@H](OCCCCO)O1	·	-14.9	-4.2	·	·	3850	·
Cc1ccc(CNS(=O)(=O)c2cn(C)cn2)cc1	3.9	-23.9	-0.2	7.5	-4.9	8452	-0.3
Cc1cccc(NC(=O)Cn2cccc2)c1	4.3	-16.1	-8.8	2.0	2.3	20306*	1.6
S=C(Nc1ccccc1)c1nc2ccccc2s1	4.3	-91.7	-1.0	-14.5	-19.9	2034	0.9
Cc1noc(C)c1C(=O)OC(C)C(=O)N(C)c1ccccc1 (stereo not given)	4.2	-9.8	·	5.6	5.3	?	0.5
COCCCn1c(SCC(=O)N(C)C)nnc1-c1ccccc1	7.7	-12.5	-0.6	5.0	4.1	10854	2.7
O=C(O)C(CC(=NO)c1ccc(Br)cc1)P(=O)(c1ccccc1)c1ccccc1 (stereo not given)	-1.3	·	·	7.5	-8.8	·	2.4
CCOc1ccc(S(=O)(=O)Nc2nc3ccccc3nc2-n2ccc(=NC(=O)c3cccs3)cc2)cc1	3.3	-57.5	1.1	6.1	-9.1	2291	9.7
Cc1ccc([N+](=O)[O-])c2c1C(N1CC(C)OC(C)C1)C(C)(C)O2 (stereo not given)	10.8	-14.9	2.3	6.8	12.9	2778	1.2
O=C(NC1C(=O)NNC1c1ccccc1)c1ccccc1 (stereo not given)	3.1	-15.1	9.2	·	·	2401	1.8
CSCCC(NC(=O)c1ccc(Cl)cc1Cl)C(=O)OC(C)C(=O)NCc1ccco1 (stereo not given)	-4.5	-22.1	-6.5	-6.8	4.9	6589	-2.6
CCn1c(COc2ccc(OC)cc2)nnc1SCc1nc2ccccc2c(=O)[nH]1	-3.2	·	-1.8	2.5	6.8	·	7.8
c1ccc2c(c1)cc1ccc3cccc4ccc2c1c34	43.6	-26.5	·	11.3	5.7	2978	-8.0
CCCN1CCN(C(=O)Cn2c(=O)oc3cc(S(=O)(=O)NCc4ccccc4)ccc32)CC1	0.7	-9.1	3.4	12.3	8.0	5681	-0.7

2 entries from above, field by field:
> Cc1ccc(NC(=O)c2cccc(S(=O)(=O)N3CCN(c4ccc(F)cc4)CC3)c2)nc1
  Sa ugtP lethal = -21.5	PrP UTR inh = -8.2	BJeLR lethal = 7.1	Mtb hypoxia inh = -5.1	Mtb hypoxia inh growth = 5.4	Bead autofluor = 4668	Sa RN4220 lethal = -0.9
> CCOC(=O)C(C)Oc1ccc(C2NC(=O)NC(C)=C2C(C)=O)cc1Br (stereo not given)
  Sa ugtP lethal = 23.5	PrP UTR inh = -9.5	BJeLR lethal = -3.3	Mtb hypoxia inh = 3.9	Mtb hypoxia inh growth = 6.0	Bead autofluor = 10062	Sa RN4220 lethal = -5.3

Other records.
molecule	Sa ugtP lethal	PrP UTR inh	BJeLR lethal	Mtb hypoxia inh	Mtb hypoxia inh growth	Bead autofluor	Sa RN4220 lethal
Cc1ccc(C(=O)CSc2nc(O)cc(=O)[nH]2)cc1C	-0.1	-7.1	0.9	2.0	7.5	3845	1.9
CC1(C)CC(=O)C2=C(C1)NC(=O)NC2c1ccc([N+](=O)[O-])cc1 (stereo not given)	6.7	-29.9	-5.0	9.6	-0.8	3927	0.3
CCOC(=O)c1c(C)n(Cc2ccco2)c2c1cc(O)c1ccccc12	-13.7	-27.1	-6.0	7.9	0.5	8853	9.3
NC(=N[N+](=O)[O-])N1CCN(C(=O)Oc2ccc([N+](=O)[O-])cc2)CC1	2.8	·	·	0.1	-1.8	·	1.1
O=C(c1ccccc1Cl)N1CCC(c2nc3c(nnn3Cc3ccco3)c(=O)[nH]2)CC1	19.6	3.4	8.3	-0.5	10.4	6006	-0.3
